VACV mCherry inh: vaccinia inhibition (mCherry reporter). Vaccinia virus mCherry reporter infection, fluorescence; about a quarter of the inactives have no number. Potency, µM (highest dose often 36.5 µM), for the others: at the top dose activity change, negative = inhibition, most hits filed as inhibitors. 0.63% of 310,000 active; active = well fitted inhibition curve with a large enough effect; inconclusive = small, poorly fitted or top-dose-only effect; inactive = no such curve, though single readings can be large or run the other way; tested in A549 cells; further: nearly all actives have a fitted effect of over 35% in size; inactives centre near -10
Vaccinia Venus: inhibitors of vaccinia virus (Venus reporter) | AID 720580 | Potency, µM (highest dose often 36.5 µM), without a hit: top-dose activity change, negative = inhibition, actives largely listed as inhibitors | Vaccinia virus Venus reporter expression, fluorescence | 0.46% of 330,000 active; active means well fitted inhibition curve with a large enough effect; inconclusive means small, poorly fitted or top-dose-only effect; inactive means no such curve, though single readings can be large or run the other way; tested in A549 cells; further: nearly all actives have a fitted effect of over 30% in size; inactives centre near -10
The depositor's hits bear a star; i = inactive; ? = inconclusive; / = no result given; [ ] = remark or other dose. On the % scale 0 is the no-effect control and ±100 the full control effect; potency means the concentration at half of the fitted maximal effect.

The first 4 compounds as a preview:
SMILES	VACV mCherry inh	Vaccinia Venus
Cc1nc(C)c(CCNC(=O)c2ccccc2)s1	-21.1%	-8.0%
CCOC(=O)CNC(=O)c1ccc(-c2nn(C)c(=O)c3ccccc23)cc1	-0.5%	4.3%
COc1cnc(-c2ccccn2)nc1NC(C)C	4.47µM*	?
COc1ccccc1-c1ccnc(-n2ncc(C(=O)NCc3cccnc3)c2C)n1	-8.4%	?

Main list, repeating the preview:
SMILES	VACV mCherry inh	Vaccinia Venus
Cc1nc(C)c(CCNC(=O)c2ccccc2)s1	-21.1%	-8.0%
CCOC(=O)CNC(=O)c1ccc(-c2nn(C)c(=O)c3ccccc23)cc1	-0.5%	4.3%
COc1cnc(-c2ccccn2)nc1NC(C)C	4.47µM*	?
COc1ccccc1-c1ccnc(-n2ncc(C(=O)NCc3cccnc3)c2C)n1	-8.4%	?
Cc1ccc(S(=O)(=O)CCc2nnc(NC(=O)C3CCCCC3)s2)cc1	-9.8%	-2.5%
Cc1c(Cl)cccc1N/C(SCC(=O)N1CCCCCC1)=C(/C#N)c1nc2ccccc2s1	i	-12.4%
CCOC(=O)c1ccc(NS(=O)(=O)c2ccc3c(c2)n(C)c(=O)n3C)cc1	-16.7%	-20.5%
CCOC(=O)CNC(=O)N1Cc2ccccc2-n2nncc2C1	-17.8%	-7.3%
O=C(CCCCCNC(=O)c1ccccc1)N/N=C/c1ccccc1O	i	-11.9%
CCn1cc(Br)c(C(=O)NCc2ccco2)n1	-12.8%	-9.1%
CCN(CC)S(=O)(=O)c1ccc(NC(=O)c2cc(-c3cccs3)nc3ccccc23)cc1	-10.5%	-2.6%
CN1CCN(C(=O)CCc2ccc(S(=O)(=O)NC3CCCCC3)cc2)CC1	?	-5.2%
Nc1nc(-c2ccc(Cl)cc2)nn1C(=O)c1cccs1	i	-2.7%
CC(C)COc1cccc(C(=O)Nc2ccc(N3CCOCC3)cc2N2CCOCC2)c1	-12.8%	-10.2%
COc1ccc(C(=O)c2nc3c(n2O)CCCCC3)cc1	/	-1.9%
CCCCOc1ccc(CNC(=O)c2cc3n(n2)CCCN(Cc2ccc(C)cc2)C3=O)cc1	?	?
CCOC(=O)C1=CN(CC2CCCO2)C=C(C(=O)OCC)C1c1ccccc1C(F)(F)F (stereo not given)	i	-11.4%
CN(C)Cc1cc(OCc2ccccc2)cc(CN(C)C)c1O	-12.8%	-9.9%
CCOc1ccc(N2C(=O)CC(S/C(N)=N/N=C/c3cccs3)C2=O)cc1 (stereo not given)	-3.0%	-9.0%
Cn1c(=O)c2c(C(=O)O)cc(-c3ccccc3)nc2n(Cc2ccccc2)c1=O	8.9%	-1.3%
O=C(Nc1ccc(F)c(Cl)c1)c1csc([C@@H]2C[C@H](O)[C@@H](CO)O2)n1	15.8%	-12.0%
COc1ccccc1NC(=O)COC(=O)c1ccccc1OCC(=O)Nc1ccc(SC(F)F)cc1	-14.7%	-9.9%
Cc1cc(C(=O)COC(=O)c2n[nH]c3ccccc23)c(C)n1CC1CCCO1 (stereo not given)	i	-17.8%
O=S(=O)(c1ccccc1)c1nc(Cc2ccccc2)oc1N1CCOCC1	4.0%	-16.7%
CC1CC(C)CN(C(=O)COC(=O)c2cc([N+](=O)[O-])ccc2N2CCOCC2)C1 (stereo not given)	-17.3%	-3.1%
Later entries.
SMILES	VACV mCherry inh	Vaccinia Venus
O=C1c2ccccc2NC(c2ccccc2)N1Cc1ccccc1 (stereo not given)	-3.1%	-17.4%
CC(C)C12CN3CC(C(C)C)(CN(C1)C3c1ccccn1)C2=O (stereo not given)	-0.7%	-3.7%
O=C(O)CCCCCn1c(SCc2cc(=O)n3cc(Cl)ccc3n2)nc2ccsc2c1=O	-14.3%	-16.0%
Cc1ccc(C)c(CN2C(=O)c3ccccc3Sc3ccc(C(=O)NCc4ccco4)cc32)c1	-15.9%	-18.4%
O=C(CN1C(=O)CCS(=O)(=O)c2ccccc21)Nc1cccc(Cl)c1	i	-11.1%
O=C(COC(=O)[C@@H]1CCCN1S(=O)(=O)c1ccc(Cl)cc1)NCC(F)(F)F	-8.0%	7.9%
CCc1ccc(C(=O)Nc2nc3ccccc3[nH]2)cc1	-10.1%	?
CC(C)NC(=O)COc1nncc2ccccc12	0.0%	1.6%
N#Cc1c(-c2ccccc2)c(C#N)c2nc3ccccc3n2c1N	i	-16.4%
CCN(CC)C(=O)Cn1c(=O)n(-c2ccc(Cl)cc2)c(=O)c2c3c(sc21)CCCCC3	?	?
Cc1ccc(C(=O)CSc2nnc(-c3ccccc3)n2-c2ccccc2)cc1	-8.3%	-1.0%
O=C(CN1C(=O)c2ccccc2S1(=O)=O)NCCSCc1ccccc1Cl	-14.4%	7.6%
Cc1ccc(C2C(=O)c3ccccc3C2=O)cc1	-11.3%	-1.3%
COc1ccc2c(c1)CCN=C2Cc1ccc(OC)c(OC)c1	-21.7%	-8.2%
CCCCN(CC)C(=O)CSc1c2c(nc3ccc(Cl)cc13)CCCC2	-10.8%	-15.0%
Cc1oc2c(c(C)cc3oc(=O)c(CC(=O)NCCC(=O)O)c(C)c32)c1C	i	-15.0%
Cc1ccc(NC(=O)C2CCN(S(=O)(=O)c3ccc4c(c3)NC(=O)CO4)CC2)cc1	-11.3%	-19.9%
COc1ccc(C(=O)N/C(=C/c2cccs2)C(=O)N2CCN(C)CC2)cc1	-15.3%	-0.9%
COC(=O)c1sccc1S(=O)(=O)N1CCN(c2cc(Cl)ccc2C)CC1	-7.9%	1.9%
CCC(Cc1ccccc1)NC(=O)c1ccc2nc(N3CCC(C)CC3)sc2c1 (stereo not given)	-24.0%	-8.0%
Cc1[nH]nc2c1C(c1ccc(N(C)C)cc1)C1=C(CC(C)(C)CC1=O)N2 (stereo not given)	-22.7%	-19.2%
CC(C)OCCCNCC(O)c1ccccc1 (stereo not given)	i	-6.2%
Cc1cccc([C@@H]2[C@@H]3C(=O)N(Cc4ccccc4)C(=O)[C@@H]3[C@]3(C)C(=O)N(c4cccc(F)c4)C(=O)N23)c1	i	-16.0%
COc1ccc(C2=Nc3cccc4cccc(c34)N2)cc1	-7.6%	1.4%
COc1ccccc1-n1c(C)c(C(C)=O)c2cc(O)ccc21	-9.6%	-29.2%
(listing goes on)
SMILES	VACV mCherry inh	Vaccinia Venus
Cc1cc(C)nc(NCCCc2ccccc2)n1	-18.8%	-10.4%
CCOc1ccc(NC(=O)C2CC(=O)N(c3cc(C)cc(C)c3)C2)cc1 (stereo not given)	/	-16.6%
COCCn1c(SCC(=O)c2c(C)[nH]c3ccccc23)nc2cc(C(=O)NC(C)C)ccc2c1=O	-7.0%	-1.7%
COC(=O)c1c(NC(=S)NC(=O)c2ccco2)sc2c1CCCC2	?	-17.6%
Cc1cc(C)nc(/N=C(\N)Nc2cc([N+](=O)[O-])ccc2C)n1	-19.5%	-15.0%
CC1(C(=O)NCCC(F)(F)F)Cc2c(-c3cccc(C(F)(F)F)c3)ccnc2O1 (stereo not given)	-15.0%	-27.5%
CC1(C(=O)NS(=O)(=O)C2CC2)CCCN(C(=O)c2cccc(Cl)c2)C1 (stereo not given)	i	-17.3%
Cc1ccc(-c2nnn(CC(=O)N(CCCO)C(C(=O)NC3CCCC3)c3ccc(F)cc3)n2)o1 (stereo not given)	-14.1%	-5.1%
Cc1ccc(NN2C(=O)C=C(c3ccc(Cl)cc3)C2=O)cc1	?	?
Cc1cccc(NC(=O)CN2C(=O)CSc3ccc(S(=O)(=O)N4CCCC4)cc32)c1C	-1.7%	-7.7%
Cc1ccc(C23CC4CC(CC(C(=O)NC(C)C(=O)O)(C4)C2)C3)cc1 (stereo not given)	i	-5.6%
O=C(CN1C(=O)S/C(=C\c2ccccc2Cl)C1=O)NC1C=CS(=O)(=O)C1 (stereo not given)	-4.4%	-5.0%
CC(C)(C)NC(=O)C(c1ccccc1F)n1c(=O)c(-c2cc3ccccc3[nH]2)nc2ccccc21 (stereo not given)	?	-26.0%
COc1ccc(-c2nc(C)c(CCNC(=O)c3cccc(C)c3)s2)cc1OC	1.4%	4.8%
C[C@H](NC(=O)c1ccc(Cl)cc1)C(=O)OCn1nnc2ccccc2c1=O	i	-10.2%
COc1ccc2c(-c3ccc(S(N)(=O)=O)cc3)c(-c3ccc(S(C)(=O)=O)cc3)sc2c1	i	-5.9%
Cn1c(=O)c2c(nc(N3CCCCCC3)n2CCSc2nc3ccccc3o2)n(C)c1=O	i	-7.7%
O=C1NC2(CCCCC2)N=C1c1ccc(Br)cc1	-10.6%	-2.7%
COc1ccc(NCc2cc3cc4c(cc3n(CC(=O)Nc3ccc(C)cc3C)c2=O)OCO4)cc1	-7.8%	-6.0%
COCCNC(=O)C(=O)NCC(c1ccc2c(c1)OCO2)N1CCOCC1 (stereo not given)	-0.8%	0.3%
COc1ccc(NC(=O)c2cccc(N3C(=O)C4C5CCC(C5)C4C3=O)c2)cc1 (stereo not given)	-26.3%	-18.2%
O=C(O)c1cccc(N(CCO)CCO)c1	i	-1.1%
CC(=O)N/C(=C\c1ccccc1)C(=O)OCc1cc(C)ccc1C	20.2%	1.7%
CCc1ccc(S(=O)(=O)Nc2cc3c(cc2N2CCOCC2)n(C)c(=O)c(=O)n3C)cc1	-12.7%[7.34 µM]	-6.5%[7.34 µM]
CC(=O)Nc1ccc(SCC(=O)Nc2oc(C)c3c(C)n[nH]c(=O)c23)cc1	-10.7%	-7.6%

Three entries from above, sorted by count of non-hydrogen atoms, smallest number first:
SMILES	VACV mCherry inh	Vaccinia Venus
Cc1cc(C)nc(/N=C(\N)Nc2cc([N+](=O)[O-])ccc2C)n1	-19.5%	-15.0%
COc1ccc(-c2nc(C)c(CCNC(=O)c3cccc(C)c3)s2)cc1OC	1.4%	4.8%
Cn1c(=O)c2c(nc(N3CCCCCC3)n2CCSc2nc3ccccc3o2)n(C)c1=O	i	-7.7%

One compound at a time (already shown). Order of values: VACV mCherry inh	Vaccinia Venus
`CCOc1ccc(NC(=O)C2CC(=O)N(c3cc(C)cc(C)c3)C2)cc1` (stereo not given) is entered as /	-16.6%
`COc1ccc2c(-c3ccc(S(N)(=O)=O)cc3)c(-c3ccc(S(C)(=O)=O)cc3)sc2c1` is entered as i	-5.9%
`Cc1ccc(C23CC4CC(CC(C(=O)NC(C)C(=O)O)(C4)C2)C3)cc1` (stereo not given) is entered as i	-5.6%
`C[C@H](NC(=O)c1ccc(Cl)cc1)C(=O)OCn1nnc2ccccc2c1=O` is entered as i	-10.2%
`COc1ccc(NC(=O)c2cccc(N3C(=O)C4C5CCC(C5)C4C3=O)c2)cc1` (stereo not given) is entered as -26.3%	-18.2%

(next part)
SMILES	VACV mCherry inh	Vaccinia Venus
COc1ccc(C(=S)N2CCN(c3ccccc3C)CC2)cc1OC	-2.4%	-29.1%
Cc1cc(SCC(=O)NCc2ccc(F)cc2)nc(=O)[nH]1	-20.2%	-2.2%
CCN(CC(=O)Nc1c(F)cccc1F)C(=O)CCc1nc2cc(S(=O)(=O)N3CCOCC3)ccc2n1C	-21.7%	-11.9%
CC(CC(=O)Nc1ccc2c(c1)c(=O)n(C)n2Cc1ccc(F)cc1)c1ccccc1 (stereo not given)	-4.6%	-26.4%
CCCCn1c(-c2nn(C)cc2Cl)n[nH]c1=S	/	-7.3%
COC(=O)C(O)(c1ccc(N(C)C(=O)OC(C)C)cc1)C(F)(F)F (stereo not given)	-14.1%	-15.4%
CCOc1ccc(CNC(=O)C2CCCN(S(C)(=O)=O)C2)cc1OC (stereo not given)	-12.2%	-6.0%
COc1ccc(NC(=O)Nc2ccon2)cc1OC	i	-7.1%
COc1ccc(NC(=O)C(NC(=O)C2CCC(C)CC2)C(C)C)cc1 (stereo not given)	-8.0%	-6.5%
COC(=O)CCC(=O)Nc1nccs1	-4.3%	-0.6%
CC(C(=O)NC1CCCC1)N(c1ccc(Oc2ccccc2)cc1)S(C)(=O)=O (stereo not given)	-1.4%	-16.2%
CC1(C)[C@@H](O)C[C@H]2[C@](C)(O)[C@@H]3CC[C@H]4[C@@H](O)[C@@]3(C[C@@H](O)[C@@]21O)C[C@@]4(C)O	-12.9%	-0.8%[60.7 µM]
O=C(O)C1CCCN1S(=O)(=O)c1ccc2c(c1)CCC2 (stereo not given)	i	-3.2%
Cc1[nH]c2ccccc2c1SCC(=O)N1CCN(c2ccccc2)CC1	4.4%	2.3%
COc1ccc2c(c1)C(c1ccccc1)NC(=O)C2 (stereo not given)	i	-6.6%
CSc1ccc(NC(=O)NCc2ccccc2)cc1	-8.4%	5.8%
CC1CCN(S(=O)(=O)c2ccc3c(c2)oc(=O)n3CC(=O)NCc2ccc(F)cc2)CC1	-20.6%	?
Cc1ccc(-n2nc3c(=O)n(CC(=O)NCc4cccs4)nc(C)c3c2C)cc1	i	-9.7%
O=C(NCCS(=O)(=O)NC1CCCCC1)c1ccccc1	-6.1%	-13.8%
COc1cc2c(cc1OC)CN(C(=O)c1cc(COc3ccccc3SC)on1)CC2	?	-16.5%
COC(=O)c1ccc(Cn2nnc3sc4c(c3c2=O)CCC(C)C4)cc1 (stereo not given)	-8.2%	-5.9%
Cc1ccc(S(=O)(=O)Nc2cncnc2NS(=O)(=O)c2ccc(C)cc2)cc1	i	1.0%
CC(Sc1nnc(-c2ccco2)n1C)C(=O)Nc1ccc(N2CCOCC2)cc1 (stereo not given)	i	-14.2%
O=C(NC1CC1)c1ccc(-c2ccc3nccn3c2)cc1	-5.1%	-0.1%
CCOC(=O)C1C(=O)CC(C)(O)C(C(=O)OCC)C1/C=C/c1ccccc1 (stereo not given)	-1.9%	-12.1%
O=C(Nc1nc2c(F)cccc2s1)c1ccc([N+](=O)[O-])o1	?	?
COc1ccc(-c2nc3c4ccccc4ccn3c2Cc2ccccc2)cc1OC	i	-0.5%
CN1CCN(c2cn[nH]c(=O)c2Cl)CC1	i	5.0%
COc1ccc(C2CC(=O)c3cc(OC)c(OC)cc32)cc1OC (stereo not given)	-11.5%	-13.9%
Nc1ccc(S(=O)(=O)N2CCCC2)cc1	17.6%	-2.5%

Bioassay records (PubChem BioAssay)
